Bioassay records from PubChem BioAssay.
miR-21 FLuc – qHTS Assay for Modulators of miRNAs and/orActivators of miR-21 | HeLa miR-21 FLuc reporter, luciferase, 48 h | Potency, µM (series often up to 38.3 µM), for inactives: top-dose reporter change, positive = more light | 340,000 tested, under 10 active | AID 2288, 2010; active = well fitted rising curve with a large enough effect; inconclusive = small, poorly fitted or top-dose-only effect; inactive = no such curve, though single readings can be large or run the other way;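 also: % of control where 0% means no effect; miR-21 action dims this reporter so a rising signal means less miR-21 action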
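HeLa cells endogenously expressing miR-21, stably carrying CMV-driven firefly luciferase with a downstream miR-21 binding site, 2000 cells/well. Titrations up to approximately 40 uM, 48 hours; luciferase luminescence read.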
GLA inh pH 4.5 – qHTS Assay for Inhibitors of Human alpha-Galactosidase at pH 4.5 | purified enzyme, 4-MU-alpha-Gal fluorescence, pH 4.5 | activity change, negative = inhibition, % at 105 µM | 230,000 tested, under 10 active; inconclusive = small, poorly fitted or top-dose-only inhibition, or a rising curve; inactive = flat fitted curve, though single readings scatter; no compound was filed as active;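 also: 0% = full activity with enzyme and -100% = basal without enzyme; dose as in the result columns while the protocol names 77 µM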
Target sequence (P06280 whole entry, looked up): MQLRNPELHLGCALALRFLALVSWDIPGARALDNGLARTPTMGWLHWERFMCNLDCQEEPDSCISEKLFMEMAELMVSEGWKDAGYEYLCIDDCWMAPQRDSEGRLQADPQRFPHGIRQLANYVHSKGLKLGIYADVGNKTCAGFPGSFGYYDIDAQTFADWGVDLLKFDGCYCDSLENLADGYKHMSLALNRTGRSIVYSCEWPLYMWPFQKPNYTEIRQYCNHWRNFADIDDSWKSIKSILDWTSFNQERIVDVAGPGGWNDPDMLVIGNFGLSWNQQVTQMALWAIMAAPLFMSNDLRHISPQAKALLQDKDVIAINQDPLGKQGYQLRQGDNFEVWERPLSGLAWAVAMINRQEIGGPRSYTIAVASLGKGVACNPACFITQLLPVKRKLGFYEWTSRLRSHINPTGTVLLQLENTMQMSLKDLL
Rango release inh – qHTS Assay for Inhibitors of RanGTP induced Rango (Ran-regulated importin-beta cargo) - Importin beta complex dissociation. 340,000 tested, 0.071% active. Snurportin-1 (Homo sapiens) + GTP-binding nuclear protein Ran (Homo sapiens) + Importin …. Biochemical FRET Rango-importin beta, RanGTP-induced dissociation. Potency, µM (titrated, usually from 46.1 µM), inactives show at the highest dose activity change, negative = inhibition; active means falling FRET ratio curve, often poorly fitted, with flat reads before Ran was added; inconclusive means other falling curves, or compound fluorescence or quenching; inactive means flat or rising ratio curve;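 also: potency is read from the fitted curve at half-maximal effect; % of control where 0% means no effect; nearly all actives have a fitted effect of over 45% in size; -100% = wells without RanGTP and RCC1; the record marks most hits as doubtful in a second field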
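Quantitative HTS using a FRET biosensor: 0.1 uM Rango, 0.25 uM importin beta, 0.6 uM Ran, 2 mM GTP, 0.2 uM RCC1 final, PBS with DTT, Tween-20 and BSA. Post-read taken 45 min after Ran addition.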
Rango complex inh – qHTS Assay for Inhibitors of Rango (Ran-regulated importin-beta cargo) - Importin beta complex formation | Importin subunit beta-1 (Homo sapiens), Q14974 | Rango CFP/YFP FRET sensor + importin beta, 45 min | Potency, µM (doses to about 92.2 µM), for the others: at the highest dose inhibition of complex formation | 340,000 tested, 0.031% active; active = rising FRET ratio curve, often small or poorly fitted; inconclusive = mostly compound fluorescence or quenching in the first reads; inactive = flat curves in all reads;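 also: potency is read from the fitted curve at half-maximal effect; 0% = DMSO wells and 100% = buffer wells lacking importin beta; nearly all actives have a fitted effect of over 15% in size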
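FRET biosensor (snurportin 1 IBB flanked by EYFP and cerulean), 50 nM, with compound 5 min, then 0.125 microM importin beta in PBS, 1 mM DTT, 0.02% Tween-20, 0.1% BSA. CFP/YFP ratio read after 45 min at room temperature; pre-read flags interference.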
Active calls of the source: *; ? = inconclusive; nt = not tested or not shown.

SMILES | miR-21 FLuc | GLA inh pH 4.5 | Rango release inh | Rango complex inh
CC(=O)c1ccc(OCC(O)CN2CCN(S(=O)(=O)c3cccc(Br)c3)CC2)cc1 (centres undefined) | 9% | nt | -12% | 0.0%
COc1cccc(N2C(=O)C3ON(c4ccccc4)C(c4cccs4)C3C2=O)c1 (centres undefined) | -1% | 2 | -16% | -5.1%
Cc1cc(-c2onc(C)c2C(=O)N/N=C/c2ccccc2)no1 | 1% | 0 | 0% | -1.3%
O=C(NCc1cccnc1)Nc1cc(Cl)cc(Cl)c1 | -8% | nt | -9% | -3.0%
Cc1[nH]ccc(=O)c1OC1OC(CO)C(O)C(O)C1O (centres undefined) | -1% | 0 | 0% | 1.2%
COC(=O)c1ccccc1NC(=O)C1CCN(C(=O)c2cc(OC)cc(OC)c2)CC1 | -6% | -2 | 7% | ?
CN(CC(=O)NCc1ccc(F)cc1)Cc1ccc(Br)cc1 | 0% | nt | -5% | -0.9%
O=C(CSc1nnc2c(n1)[nH]c1ccccc12)Nc1ccc(N2CCOCC2)cc1 | 2% | 3 | 11% | 3.8%
Cc1c(NC(=O)CCCCCN2C(=O)c3ccccc3C2=O)c(=O)n(-c2ccccc2)n1C | -8% | -1 | 4% | -7.5%
CC(C(=O)NCc1ccco1)n1nc(-c2ccccc2)c2cc(Cl)ccc21 (centres undefined) | -5% | 0 | -1% | 0.3%
CCNC(=S)NNC(=O)c1cccc(Br)c1 | -7% | 3 | 5% | -1.5%
COc1ccc2cc(C3=CCCC3(C)C(=O)O)ccc2c1 (centres undefined) | nt | nt | 0% | -1.2%
CC(=O)c1ccccc1NC(=O)COc1ccc(N(C)S(=O)(=O)c2ccc(C)c(C)c2)cc1 | nt | nt | 10% | 0.3%
CC(C)c1cc(C(=O)Nc2cccnc2)no1 | -26% | -3 | 4% | 0.2%
COc1ccc(S(=O)(=O)N(C)C2CCN(C)CC2)cc1 | -4% | 1 | -3% | 2.5%
OCCCNc1nc(-c2ccc(Cl)cc2)nc2ccccc12 | 7% | nt | 5% | 3.3%
COc1ccc2c(c1)CC(C1(O)C(=O)N(C)c3ccccc31)C2=O (centres undefined) | -4% | -1 | -14% | 1.2%
CN(Cc1cccs1)C(=O)COC(=O)CNC(N)=O | 4% | 8 | -10% | -5.2%
CCOC(=O)c1[nH]c2ccc(Cl)cc2c1NC(=O)/C=C/c1ccc2c(c1)OCO2 | -3% | 7 | -1% | 5.2%
CCN(CC)S(=O)(=O)c1ccc(N2CC(C(=O)NC3(C)CCS(=O)(=O)C3)CC2=O)cc1 (centres undefined) | nt | nt | -1% | -3.6%
Cc1nn(-c2ccccc2)c(Cl)c1/C=N/NC(N)=O | -73% | -3 | -14% | 1.7%
N#Cc1ccccc1NC(=O)CN1C(=O)NC2(CCCC2)C1=O | 6% | nt | 19% | 0.0%
C/C=C1\COC(C(=O)NCc2ccccc2)(C(F)(F)F)C=C1C=C(C)C (centres undefined) | nt | nt | 2% | -2.3%
Cc1cc2cc3c(=O)[nH]c(=O)[nH]c3nc2cc1C | 4% | 16 | nt | nt
Cc1ccc(C(=O)N[C@@H](C)CN2C3=NC[C@H](C(C)C)N3C[C@H]2Cc2ccc(O)cc2)cc1Br | 19% | -9 | 1% | -2.6%
COc1ccc(CCNC(=O)Cc2ccc(OC)c(OC)c2)cc1OC | 1% | 3 | ? | 1.9%
O=C1c2ccccc2C(=O)N1CCCCN(C(=O)c1cc([N+](=O)[O-])cc([N+](=O)[O-])c1)c1ccc(Cl)cc1 | -3% | -1 | -6% | 5.1%
CCOc1ccc(C(C)=O)cc1N1C(=O)C2C(C1=O)C1C=CC2C12CC2 (centres undefined) | -8% | 9 | -10% | 0.7%
CCN(CC)c1ccc(/C=C/C(=O)C2C(=O)C=C(C)OC2=O)cc1 (centres undefined) | -51% | -8 | ? | ?
Cc1cc(C)cc(NS(=O)(=O)c2ccc(F)cc2)c1 | 0% | -7 | 1% | 1.2%
CCCCC(=O)N1CC2(C)CN(C(=O)CCCC)CC(C)(C1)C2=O | -1% | -15 | 5% | 2.1%
CCN1C(=O)C(C(=O)c2ccccc2)SC1=S (centres undefined) | -5% | 2 | -3% | -1.7%
Cc1ccc(N=c2sc(C)c(C)n2C)cc1 | -68% | -2 | 32% | -1.1%
COc1ccccc1NC(=O)CSc1nnnn1-c1ccc(F)cc1 | -2% | nt | 5% | -0.6%
CC1(C)Cc2c(sc(NC(=O)c3ccc(S(=O)(=O)N4CCCCCC4)cc3)c2C#N)C(C)(C)N1 | -4% | nt | -1% | 0.6%
COc1ccc(-n2nnnc2SCC(=O)c2ccc(OC)c(OC)c2)cc1 | 0% | -1 | -20% | -0.4%
CC(C)Oc1cccc(C(=O)Nc2ccccc2N2CCOCC2)c1 | -10% | 0 | -8% | 0.5%
CC1=CC2(O)OCCN(CCO)C2=CC1=O (centres undefined) | 2% | nt | ? | -4.7%
CCOCc1nnc(NC(=O)CCC2CCCCC2)s1 | -6% | nt | -7% | 3.4%
Cc1ccc(C)c(NC(=S)NC(C)C(c2cccs2)N2CCOCC2)c1 (centres undefined) | 1% | 7 | 0% | 3.5%
O=C(NC1CS(=O)(=O)CC1NCc1ccco1)c1ccccc1 (centres undefined) | -3% | -2 | -6% | 1.1%
O=C(Nc1nccs1)c1ccc(S(=O)(=O)c2ccccc2)cc1 | 4% | -1 | -9% | 6.5%
CCCCn1c(N)c(N(CCOC)C(=O)c2cc(-c3ccc(C)cc3)nc3ccccc23)c(=O)[nH]c1=O | nt | nt | -13% | 1.7%
Cc1[nH]c(C)c(S(=O)(=O)NCc2ccc(F)cc2)c1C(=O)N1CCCC1 | 1% | nt | ? | 3.3%
COc1cccc(-n2nc(C(N)=O)c(O)cc2=O)c1 | 6% | 8 | 0% | 1.8%

Quoted from the listing.
Result for O=C(NC1CS(=O)(=O)CC1NCc1ccco1)c1ccccc1 (centres undefined) in Rango release inh: -6%
Result for O=C(Nc1nccs1)c1ccc(S(=O)(=O)c2ccccc2)cc1 in Rango complex inh: 6.5%

(next part)
SMILES | miR-21 FLuc | GLA inh pH 4.5 | Rango release inh | Rango complex inh
O=C(OCC(=O)N1CCN(C(=O)c2ccco2)CC1)c1ccc(Cl)c(Cl)c1 | nt | nt | 1% | 0.8%
COc1ccc(NC(=O)Nc2ccc3nsnc3c2)cc1 | -25% | 5 | -14% | -1.0%
COc1ccc(OC)c(C(=O)CSc2nc3ncccc3[nH]2)c1 | -10% | 2 | 0% | 2.3%
CC(=O)Nc1ccc(NC(=O)C2CCCN(c3ncccn3)C2)cc1 (centres undefined) | -13% | 1 | 13% | 1.9%
Cc1ccc(S(=O)(=O)NCCN2CCOCC2)c(C)c1C | -4% | 7 | -8% | -4.0%
O=c1c2c(nc3cc(-c4cccc(Cl)c4)[nH]n13)CCCC2 | -53% | -12 | 23% | -5.8%
C=CCc1cccc2cc(C(=O)NCc3cccnc3)c(=O)oc12 | -4% | -11 | -6% | -6.7%
CCN(CC)CCCNC(=O)c1ccc2c3n(nc2c1)-c1ccc(Cl)cc1CO3 | nt | nt | 10% | -0.6%
Cc1cccn2c(CNCC3(c4ccccc4)CCCC3)c(C(=O)N3CCOCC3)nc12 | 5% | -2 | 1% | 2.1%
Cc1nn2c(-c3cccc(NC(=O)CN4CCOCC4)c3)nnc2c2ccccc12 | nt | nt | 0% | 1.8%
O=C(CCN=C1NS(=O)(=O)c2ccccc21)OCc1c(F)c(F)c(F)c(F)c1F | nt | nt | 8% | 5.0%
Cc1noc(C)c1C(=O)N1CCN(c2cccc(Cl)c2)CC1 | -1% | 0 | -21% | -6.1%
CSc1nc2ccc(NC(=O)c3ccccn3)cc2s1 | -26% | nt | -4% | 5.0%
Cc1ccc(C2=[N+]([O-])C3(CCCCC3=O)N(O)C2(C)C)cc1 (centres undefined) | 26% | 0 | 0% | -4.9%
CCn1c(CNc2ccc(Cl)cc2)nnc1SCC(=O)NCc1ccccc1 | 0% | 7 | 0% | -1.1%
Cc1ccc(NC(=O)NC(=O)CN2C(=O)NC3(CCCCCCC3)C2=O)c(C)c1 | -9% | -5 | -4% | -0.7%
COC(=O)/C=C/C(=O)N1CCN(c2cccc(Cl)c2)CC1 | 5% | -5 | nt | nt
COc1ccc(OC)c(CN2CCC(CO)(CCOc3ccccc3)CC2)c1 | -5% | 3 | -2% | -1.5%
Cc1cccc(N2CC(C(=O)Nc3nnc(SCCC4OCCO4)s3)CC2=O)c1 (centres undefined) | -5% | nt | 0% | -1.5%
Cc1cc(C)cc(C(=O)NC(CC(N)=O)c2ccc(NCCN3CCOCC3)c([N+](=O)[O-])c2)c1 (centres undefined) | -4% | nt | 4% | 5.4%
O=[N+]([O-])c1ccc2nc(-c3ccc(Cl)cc3)[nH]c2c1 | -30% | 2 | -2% | 1.4%
N#CCSc1nnc(C2CCCCC2)n1-c1ccccc1 | -2% | 7 | -6% | -0.1%
O=C(O)COc1ccccc1/C=N/NC(=O)COc1ccc(-c2ccccc2)cc1 | -5% | -22 | 10% | -0.6%
O=C(NCc1ccccc1CN1CCCC1)c1cccc(S(=O)(=O)Nc2ccc(F)cc2)c1 | nt | nt | 1% | -5.4%
CSc1nc2nc(C)cc(-c3ccccc3)n2n1 | -11% | 1 | 3% | -1.3%
Cc1cccc(NC(=O)C(=O)C2C(=O)Nc3ccccc32)c1 (centres undefined) | -2% | -11 | -14% | 1.9%
COc1ccc(C)cc1NS(=O)(=O)c1ccc(-c2cnc(C3CC3)o2)cc1 | ? | nt | -1% | 0.0%
OC1C=CSc2nc3ccccc3n21 (centres undefined) | 0% | -5 | -5% | -0.4%
O=[N+]([O-])c1ccc(S(=O)(=O)N2CCN(C3CCN(Cc4ccccc4)CC3)CC2)cc1 | 1% | nt | -2% | 5.4%
O=C(O)C1Oc2cc3ccccc3cc2O1 | 0% | nt | -20% | -4.9%

Quoted at random: 4 records from the list.
SMILES | miR-21 FLuc | GLA inh pH 4.5 | Rango release inh | Rango complex inh
OC1C=CSc2nc3ccccc3n21 (centres undefined) | 0% | -5 | -5% | -0.4%
O=[N+]([O-])c1ccc2nc(-c3ccc(Cl)cc3)[nH]c2c1 | -30% | 2 | -2% | 1.4%
COc1ccc(OC)c(CN2CCC(CO)(CCOc3ccccc3)CC2)c1 | -5% | 3 | -2% | -1.5%
O=C(NCc1ccccc1CN1CCCC1)c1cccc(S(=O)(=O)Nc2ccc(F)cc2)c1 | nt | nt | 1% | -5.4%

Going on with the list:
SMILES | miR-21 FLuc | GLA inh pH 4.5 | Rango release inh | Rango complex inh
CC(OC(=O)c1nc(Cl)ccc1Cl)C(=O)Nc1ccccc1F (centres undefined) | nt | nt | -20% | ?
CC1(C(=O)N(CC(=O)NC2CCCC2)C2CCCC2)CC(=O)N=C2C=CC=CN21 (centres undefined) | 1% | 13 | -16% | 1.7%
S=C(Nc1ccc(Cl)cc1)NC1CC2CCCC(C1)N2C1CC1 (centres undefined) | 13% | -2 | -8% | -7.3%
CCCCn1c(N)c(N(CCC(C)C)C(=O)c2ccc([N+](=O)[O-])o2)c(=O)[nH]c1=O | 5% | nt | -6% | -2.6%
O=C(O)CN1C(=O)c2cccc(Oc3ccc(Cl)cc3)c2C1=O | -3% | -3 | -18% | 2.8%
CCNc1nc(NOC)nc(OCC#N)n1 | -11% | -16 | 11% | -4.7%
CCN1/C(=C\C(C)=O)Sc2ccc(OC)cc21 | 13% | 4 | -16% | 2.1%
Cn1c(C(=O)N2CCc3ccccc3C2)cc2c(=O)n3ccccc3nc21 | -32% | ? | ? | ?
COc1ccc(N=Nc2ccc(CO)cc2)cc1 | nt | nt | -2% | 3.4%
CC(C)(C)NC(=O)CSc1nc2ccc(NC(=O)CSc3nnnn3Cc3ccccc3)cc2s1 | ? | -17 | -5% | -0.6%
COC(=O)c1ccc(C(=O)OC)c(NC(=S)N2CCCC2)c1 | -3% | nt | -10% | ?
CCc1cc2c(=O)[nH]c(-c3ccccn3)nc2s1 | ? | 0 | -19% | -0.7%
Oc1c(C(c2cccc(F)c2)N2CCN(Cc3ccccc3)CC2)sc2ncnn12 (centres undefined) | -4% | -2 | -19% | -2.4%

Only part of the results is shown; count on the stated rates, not on these rows.
